From PubChem
GPT2 inh = GPT2 alanine aminotransferase inhibition; Potency, µM (series often up to 57.7 µM), inactives show at the top dose activity change, negative = inhibition, usual class: inhibitors; AID 1671188; Recombinant GPT2, coupled pyruvate oxidase/HRP Amplex Red fluorescence; Q8TD30; 100,000 tested, 0.25% active; note: nearly all actives have a fitted effect of over 60% in size; many of its hits are not listed in these tables
Target sequence (Q8TD30 whole entry, looked up): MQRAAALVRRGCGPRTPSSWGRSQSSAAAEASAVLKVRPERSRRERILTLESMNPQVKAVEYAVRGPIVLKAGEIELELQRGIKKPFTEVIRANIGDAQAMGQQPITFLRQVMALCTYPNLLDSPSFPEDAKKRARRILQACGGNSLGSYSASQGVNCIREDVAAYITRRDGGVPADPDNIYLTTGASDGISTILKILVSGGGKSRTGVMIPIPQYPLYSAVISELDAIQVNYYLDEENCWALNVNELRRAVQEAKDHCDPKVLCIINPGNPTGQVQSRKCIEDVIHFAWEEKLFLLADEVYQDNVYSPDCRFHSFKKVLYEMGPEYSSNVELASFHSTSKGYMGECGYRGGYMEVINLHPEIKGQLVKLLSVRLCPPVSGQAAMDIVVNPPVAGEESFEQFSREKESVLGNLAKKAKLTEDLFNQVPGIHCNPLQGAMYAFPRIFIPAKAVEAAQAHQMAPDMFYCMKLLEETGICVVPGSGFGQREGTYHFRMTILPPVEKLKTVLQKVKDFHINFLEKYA
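Inhibition is scored from Amplex Red fluorescence generated when pyruvate oxidase and HRP act on pyruvate released by GPT2. Reactions contain 10ng/uL enzyme, 250uM a-KG and 2mM L-alanine and run 30 min at room temperature.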
SNCA expr inh = inhibitors of alpha-synuclein (SNCA) gene expression; HEK-293 SNCA-luciferase knock-in, luminescence, 24 h; Potency, µM (series often up to 57.2 µM), for the others: at the highest dose activity change, negative = inhibition, hits mostly inhibitors; 140,000 tested, 0.17% active; AID 1671194;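 note: plate controls were DMSO cells for no effect and cell-free wells for full effect; nearly all actives have a fitted effect of over 45% in size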
FLuc inh = Photinus pyralis luciferase inhibition; P08659; purified P. pyralis luciferase, luminescence, biochemical; Potency, µM (titrated, usually from 115 µM), for the others: top-dose activity change, negative = inhibition, usual class: inhibitors; 76,000 tested, 2.5% active; AID 1347043; note: nearly all actives have a fitted effect of over 65% in size
Target sequence (P08659 whole entry, looked up): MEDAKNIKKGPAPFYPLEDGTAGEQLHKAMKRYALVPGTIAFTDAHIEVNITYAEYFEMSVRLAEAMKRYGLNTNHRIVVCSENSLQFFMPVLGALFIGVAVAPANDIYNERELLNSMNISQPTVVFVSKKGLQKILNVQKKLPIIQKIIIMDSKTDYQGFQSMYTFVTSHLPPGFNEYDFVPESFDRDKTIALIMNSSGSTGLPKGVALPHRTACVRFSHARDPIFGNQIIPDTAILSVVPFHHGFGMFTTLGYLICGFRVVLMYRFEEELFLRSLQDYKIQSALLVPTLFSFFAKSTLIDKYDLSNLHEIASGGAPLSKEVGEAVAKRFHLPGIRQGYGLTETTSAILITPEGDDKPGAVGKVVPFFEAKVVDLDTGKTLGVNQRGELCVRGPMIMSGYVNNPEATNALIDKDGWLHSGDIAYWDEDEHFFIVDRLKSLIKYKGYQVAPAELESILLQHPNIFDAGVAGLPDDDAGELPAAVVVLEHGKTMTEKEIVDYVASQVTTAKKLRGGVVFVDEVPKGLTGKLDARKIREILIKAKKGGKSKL
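FLuc 10nM, D-luciferin 10uM, ATP 10uM, Mg acetate 10mM, Tris acetate pH 7.5, Tween/BSA; cpd qHTS; enzyme added last; CCD luminescence.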
HEK cytotox = kills HEK 293 cells; AID 1345083; HEK 293 viability, ATP luminescence (CellTiter-Glo), 48-72 h; Potency, µM (highest dose often 115 µM), without a hit: at the top dose activity change, negative = cytotoxicity, actives largely listed as inhibitors; 94,000 tested, 6.6% active; note: nearly all actives have a fitted effect of over 60% in size
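ATP-coupled CellTiter-Glo luminescence served as viability read-out, recorded 10 min after reagent addition at room temperature. HEK 293 cells, 250 cells/well, had been incubated with pintool-transferred compound for 48 or 72 hr at 37 degree Celsius.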
NIH3T3 tox = NIH 3T3 cell cytotoxicity; 94,000 tested, 4.3% active; Potency, µM (titrated, usually from 96.7 µM), without a hit: at the top dose activity change, negative = cytotoxicity, hits mostly inhibitors; NIH 3T3 viability, CellTiter-Glo ATP luminescence, 48-72 h; AID 1345082; note: nearly all actives have a fitted effect of over 55% in size
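First NIH 3T3 cells are plated at 400 cells/well; next compound is pinned in; then plates incubate 48 or 72 hr at 37 °C; finally CellTiter-Glo is added and luminescence read after 10 min.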
SNCA viab count = reduces viability of HEK-293 SNCA reporter cells; Potency, µM (series often up to 57.1 µM), inactives show at the top dose activity change, negative = cytotoxicity, usual class: cytotoxic; HEK-293-SNCA-luc viability, GF-AFC fluorescence, 24 h; 150,000 tested, 0.12% active; AID 1671193;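 note: 0% = DMSO-treated cells and -100% = medium-only wells without cells; nearly all actives have a fitted effect of over 30% in size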
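HEK-293-SNCA-luc cells (1500/well) plated 24 h, then exposed 24 h to a dilution series; GF-AFC added 30 min at 37C, fluorescence 405/540 nm; normalised to medium-only and DMSO wells, Hill fit.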
An asterisk follows results filed as active; i = inactive; ? = inconclusive; / = no result given; [ ] = remark or other dose. Calls come from the whole dose curve; as a rule, active = well fitted curve in the direction sought with a large enough effect; inconclusive = small, poorly fitted or top-dose-only effect, or another doubt; inactive = no such curve, though single readings can be large; an effect the other way counts as inactive or inconclusive. Unless noted, % is set by controls: 0 for no effect and ±100 for the full control effect; potency is the fitted concentration of half-maximal effect.

nr | Molecule | GPT2 inh | SNCA expr inh | FLuc inh
1 | CCOc1ccccc1CNC(=O)c1cc2c(=O)n(Cc3cccnc3)ccc2nc1C | / | -6% | /
2 | COc1ccc(NC(=O)CC2C(=O)N(c3ccc(F)cc3)C(=O)N2Cc2ccc3c(c2)OCO3)cc1 (configuration not stated) | / | -16% | /
3 | COc1ccc(-c2nc(CN3CCC(CO)CC3)c(C)o2)c2ccccc12 | i[11.5 µM] | 0% | -12%
4 | COc1ccc(CCNc2nc(-c3ccc(Cl)cc3)cc(C(F)(F)F)n2)cc1OC | / | -11% | /
5 | COc1ccc(-c2cc(-c3ccc(F)cc3OC)cn3cncc23)cc1 | ? | ? | 7%[172 µM]
6 | N#Cc1ccc(CN2CCCC3(Cc4ccccc4NC3=O)C2)cc1 (configuration not stated) | -8% | 2% | /
7 | Cc1cc(C)c2c(=O)cc(C(=O)Nc3c(C)n(C)n(-c4ccccc4)c3=O)oc2c1 | / | -8% | /
8 | COc1cccc(NC(=O)c2cc3c(=O)n(Cc4cccnc4)ccc3nc2C)c1 | / | 5% | /
9 | Cc1ccc(NC(=O)CCSc2nc(-c3ccc4c(c3)OCO4)cc(C(F)(F)F)n2)cc1 | / | 23% | /
10 | COC[C@@H]1CN(C(=O)Cc2c[nH]c3ccccc23)C[C@H]1c1nc(C)no1 | i | 24% | -8%

nr | HEK cytotox | NIH3T3 tox | SNCA viab count
1 | / | / | 12%
2 | / | / | 4%
3 | 20µM* | ? | ?
4 | / | / | -10%
5 | ? | ? | -21%[87.6 µM]
6 | -12% | -2% | 1%
7 | / | / | 18%
8 | / | / | 4%
9 | / | / | 6%
10 | 4% | -3% | 3%

Going on with the list:
nr | Molecule | GPT2 inh | SNCA expr inh | FLuc inh
11 | Cc1noc(C)c1[S+](=O)([O-])N1CCn2c(nn(-c3ccc(Cl)cc3)c2=O)C1 | i | -23% | /
12 | CC(=O)N1c2ccc(S(=O)(=O)NCC3CCC(C(=O)Nc4cc(C)ccc4C)CC3)cc2CC1C (configuration not stated) | / | 2% | /
13 | CCC(C)n1c(=N)c(C(=O)NCc2ccccc2)cc2c(=O)n3cc(C)ccc3nc21 (configuration not stated) | / | -25% | /
14 | Cc1ccc(NC(=O)CCSc2nc(-c3ccc4c(c3)OCO4)cc(C(F)(F)F)n2)c(C)c1 | / | 4% | /
15 | Clc1cccc(-n2ncc3c(Nc4ccc5c(c4)OCCO5)ncnc32)c1 | / | 160%[activator] | /
16 | CSc1nn(CC(=O)Nc2cc(C)ccc2C)c(N)c1S(=O)(=O)c1ccccc1 | / | ? | /
17 | CC1CCc2c(sc(NC(=O)CCCOc3ccccc3)c2C(N)=O)C1 (configuration not stated) | / | -6% | /
18 | CCn1cc(-c2nc3cc(S(=O)(=O)NC(C)C)ccc3n2C(C)C)cn1 | 5% | 2% | 13%
19 | O=C(C1CCOCC1)N1CCC(c2noc(COc3ccc(F)cc3)n2)C1 (configuration not stated) | i | -24% | 1%
20 | Cn1cc([C@@H](NC(=O)c2cccc3c2NCCC3)C2CC(O)C2)cn1 (some centres not stated) | i | ? | -4%

nr | HEK cytotox | NIH3T3 tox | SNCA viab count
11 | ? | ? | -6%
12 | / | / | -6%
13 | / | / | ?
14 | / | / | -7%
15 | / | / | -2%
16 | / | / | -12%
17 | / | / | 3%
18 | ? | ? | -6%
19 | -27% | -19% | 3%
20 | ? | ? | ?

New compounds follow:
nr | Molecule | GPT2 inh | SNCA expr inh | FLuc inh
21 | CCc1ccc(NC(=O)c2cc3c(=O)n(Cc4cccnc4)ccc3nc2C)cc1 | / | 19% | /
22 | C[S+](=O)([O-])Nc1cccc(Nc2ncc(-c3cccc(F)c3)c3c2OCC3)c1 | 2%[88.5 µM] | -13%[87.6 µM] | -10%[172 µM]
23 | COc1ncccc1-c1cc(-c2c(C)noc2C)c2cncn2c1 | 4%[88.5 µM] | 47%[activator][87.6 µM] | 6%[172 µM]
24 | COC(=O)c1ccccc1NC(=O)C1=CC(c2ccc3c(c2)OCO3)=NS(=O)(=O)N1C | / | 20% | /
25 | N#Cc1ccc(CN2CCC23Cc2ccccc2NC3=O)cc1 (configuration not stated) | i | 4%[87.6 µM] | -6%[172 µM]
26 | O=C(c1cccs1)N1CCCN(C(=O)C2CC2)c2ccccc21 | -9% | -2% | 2%
27 | Cc1cc(C)c(NC(=O)C(C)n2nc(-c3ccc(C)c(C)c3)ccc2=O)c(C)c1 (configuration not stated) | / | -19% | /
28 | CCN(C(=O)Nc1cn(CC(C)C)c(=O)c2ccccc12)c1cc(C)ccc1C | / | -23% | /
29 | CCn1c(=N)c(C(=O)NCc2cccnc2)cc2c(=O)n3cc(C)ccc3nc21 | / | -13% | /
30 | CC(C)Cn1cc(NC(=O)NCc2ccc(Cl)cc2)c2ccccc2c1=O | / | -26% | /

nr | HEK cytotox | NIH3T3 tox | SNCA viab count
21 | / | / | -1%
22 | ? | 32µM* | -26%[87.6 µM]
23 | ? | ? | -10%[87.6 µM]
24 | / | / | 0%
25 | ? | ? | 7%[87.6 µM]
26 | -3% | -25% | -4%
27 | / | / | -1%
28 | / | / | 3%
29 | / | / | ?
30 | / | / | -5%

Additional compounds follow.
nr | Molecule | GPT2 inh | SNCA expr inh | FLuc inh
31 | O=C(NCCc1csc(-c2cccc(F)c2)n1)c1ccc(Br)o1 | / | -14% | /
32 | O=C(CSc1oc(-c2ccccc2)nc1S(=O)(=O)c1ccc(Br)cc1)NC1CCCCC1 | / | -4% | /
33 | O=C(O)c1cccc(C(=O)N2C[C@@H]3C[C@H](C2)c2ccc(NC(=O)c4cccs4)c(=O)n2C3)c1 | i | -16% | -18%
34 | CC(=O)Nc1ccc(NC(=O)CN(C)S(=O)(=O)c2ccc3c(c2)CCCC(=O)N3)cc1 | / | 8% | /
35 | Cc1noc([C@@H]2CN(C(=O)CCC(C)C)C[C@H]2CO)n1 | 1% | -4% | 8%
36 | COc1ccc(C2NC(=O)N(C)C3=C2C(=O)N(c2ccccc2)C3)cc1 (configuration not stated) | / | -11% | /
37 | O=C(c1coc(COc2ccc(F)cc2)n1)N1CCC(c2ccc(F)cc2)C1 (configuration not stated) | 1% | -29% | 0%
38 | CN(C)C(=O)C1=NOC2CN(C(=O)C3CC3)CC12 (configuration not stated) | i | 19%[87.6 µM] | /
39 | COc1ncccc1-c1cc(-c2cn[nH]c2)c2cncn2c1 | -14%[88.5 µM] | -18%[87.6 µM] | 10%[230 µM]
40 | COc1ccc(CCNc2nc(-c3ccc(F)cc3)cc(C(F)(F)F)n2)cc1OC | / | 2% | /

nr | HEK cytotox | NIH3T3 tox | SNCA viab count
31 | / | / | -6%
32 | / | / | 5%
33 | i | 2% | 0%
34 | / | / | 8%
35 | -7% | -9% | -13%
36 | / | / | ?
37 | -29% | ? | 1%
38 | i | i | 8%[87.6 µM]
39 | ? | 71µM* | 4%[87.6 µM]
40 | / | / | 8%

The results go on:
nr | Molecule | GPT2 inh | SNCA expr inh | FLuc inh
41 | Cc1ccc(NC(=O)C2=CC(c3ccc4c(c3)OCO4)=NS(=O)(=O)N2C)cc1 | / | -1% | /
42 | CC(C)CN1C[C@@H](NC(=O)c2cccnc2)C[C@H]1CO | -18% | -12% | -2%
43 | COc1ccc(CCNC(=O)c2cc3c(=O)n4ccccc4nc3n2C)cc1 | / | 5% | /
44 | Cn1cc([C@@H](NC(=O)c2ccccc2N2CCCC2)C2CC(O)C2)cn1 (some centres not stated) | -24% | 12% | 0%
45 | Cc1ccc(-c2nc(CCNC(=O)c3ccc(C)c(C)c3)cs2)cc1 | / | 31%[activator] | /
46 | COc1ccccc1CCNC(=O)C(=O)NCC(c1cccnc1)N1CCN(c2ccccc2)CC1 (configuration not stated) | / | -31% | /
47 | COCCCn1c(=N)c(C(=O)NC2CCCC2)cc2c(=O)n3ccccc3nc21 | / | 3% | /
48 | O=C(Cc1cccc(Cl)c1)N1CCC(n2c(=O)[nH]c3ccccc32)CC1 | -4% | 46%[activator] | /
49 | CCOc1ccccc1NC(=O)c1cc2c(=O)n(Cc3cccnc3)ccc2nc1C | / | 2% | /
50 | O=C(O)c1cccc(-c2ccc(OC(F)(F)F)cc2)c1 | i | 159%[activator][87.6 µM] | /

nr | HEK cytotox | NIH3T3 tox | SNCA viab count
41 | / | / | 8%
42 | 15% | 3% | -4%
43 | / | / | 4%
44 | i | -24% | 0%
45 | / | / | ?
46 | / | / | 2%
47 | / | / | ?
48 | ? | -24% | -14%
49 | / | / | -2%
50 | -24%[172 µM] | -1%[138 µM] | -8%[87.6 µM]

From no. 40 to 50, copied from above:
nr | Molecule | GPT2 inh | SNCA expr inh | FLuc inh
40 | COc1ccc(CCNc2nc(-c3ccc(F)cc3)cc(C(F)(F)F)n2)cc1OC | / | 2% | /
41 | Cc1ccc(NC(=O)C2=CC(c3ccc4c(c3)OCO4)=NS(=O)(=O)N2C)cc1 | / | -1% | /
42 | CC(C)CN1C[C@@H](NC(=O)c2cccnc2)C[C@H]1CO | -18% | -12% | -2%
43 | COc1ccc(CCNC(=O)c2cc3c(=O)n4ccccc4nc3n2C)cc1 | / | 5% | /
44 | Cn1cc([C@@H](NC(=O)c2ccccc2N2CCCC2)C2CC(O)C2)cn1 (some centres not stated) | -24% | 12% | 0%
45 | Cc1ccc(-c2nc(CCNC(=O)c3ccc(C)c(C)c3)cs2)cc1 | / | 31%[activator] | /
46 | COc1ccccc1CCNC(=O)C(=O)NCC(c1cccnc1)N1CCN(c2ccccc2)CC1 (configuration not stated) | / | -31% | /
47 | COCCCn1c(=N)c(C(=O)NC2CCCC2)cc2c(=O)n3ccccc3nc21 | / | 3% | /
48 | O=C(Cc1cccc(Cl)c1)N1CCC(n2c(=O)[nH]c3ccccc32)CC1 | -4% | 46%[activator] | /
49 | CCOc1ccccc1NC(=O)c1cc2c(=O)n(Cc3cccnc3)ccc2nc1C | / | 2% | /
50 | O=C(O)c1cccc(-c2ccc(OC(F)(F)F)cc2)c1 | i | 159%[activator][87.6 µM] | /

nr | HEK cytotox | NIH3T3 tox | SNCA viab count
40 | / | / | 8%
41 | / | / | 8%
42 | 15% | 3% | -4%
43 | / | / | 4%
44 | i | -24% | 0%
45 | / | / | ?
46 | / | / | 2%
47 | / | / | ?
48 | ? | -24% | -14%
49 | / | / | -2%
50 | -24%[172 µM] | -1%[138 µM] | -8%[87.6 µM]

(continued)
nr | Molecule | GPT2 inh | SNCA expr inh | FLuc inh
51 | CCOC(=O)c1nnn(C(CC)C(=O)Nc2ccc(F)cc2)c1C(=O)OCC (configuration not stated) | / | -16% | /
52 | CCCCN(CC)C(=O)c1cc2c(=O)n3ccccc3nc2n1C | / | 84%[activator] | /
53 | CCc1ccccc1NC(=O)C1=CC(c2ccc(OC)c(OC)c2)=NS(=O)(=O)N1C | / | -7% | /
54 | CN(CC(=O)Nc1ccc(OC(F)(F)F)cc1)S(=O)(=O)c1ccc2c(c1)CCC(=O)N2 | / | -6% | /

nr | HEK cytotox | NIH3T3 tox | SNCA viab count
51 | / | / | 1%
52 | / | / | ?
53 | / | / | -1%
54 | / | / | 2%

The list is partial (hit frequency here may not be typical).
